Hsc70: Hsc70 inhibitors, probe displacement, primary screen, biochemical, fluorescence polarization (AID 568); displacement, % at 20 µM, or IC50 in µM where a hit was titrated; 83,000 tested, under 10 active; Hsc70 fluorescence polarization, probe displacement; higher % means a stronger effect; strong numbers were not always called active;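 active = displacement above 50% without optical interference and an IC50 on retest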;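 also: ATPase domain with a fluorescein-tagged ATP probe; 0% = vehicle and 100% = excess ADP; read after one hour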
WNV protease inh: blocks West Nile virus NS2B-NS3 protease activity; WNV NS2B-NS3 protease, fluorogenic substrate Ex360/Em465; hits give low values; z-score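 (tested at a level between 10 and 100 µM)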; hit rate 0.18% among 65,000;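 active = z-score at -3 or under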;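 also: score is relative to mean and spread of the compound wells of a plate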
Target sequence (P06935 1371-1501 limits assumed): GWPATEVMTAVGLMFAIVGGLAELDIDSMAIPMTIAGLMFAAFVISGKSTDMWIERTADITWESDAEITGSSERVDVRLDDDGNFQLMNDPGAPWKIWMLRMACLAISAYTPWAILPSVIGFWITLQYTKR
Target sequence (P06935 1502-1679 limits assumed): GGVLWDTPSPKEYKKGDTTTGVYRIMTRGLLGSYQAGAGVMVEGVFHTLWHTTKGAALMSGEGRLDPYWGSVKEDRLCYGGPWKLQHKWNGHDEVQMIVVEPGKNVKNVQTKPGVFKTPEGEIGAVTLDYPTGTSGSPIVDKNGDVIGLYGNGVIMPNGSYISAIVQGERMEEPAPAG
MT1-MMP promoter: MT1-MMP gene expression reporter suppression – cell-based, luciferase reporter, luminescence (AID 618); MT1-MMP promoter luciferase reporter cells, luminescence; calls from a first round at 10 µM; hits with a dose series show EC50 in µM; hit rate 0.62% among 87,000;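 active = over half of the reporter light lost at 10 µM or EC50 under 50 µM; inactive = the rest and hits that failed the dose series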;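 also: actives suppress MT1-MMP promoter-driven transcription so potencies describe inhibitors; HT1080 fibrosarcoma cells; overnight exposure; toxic or luciferase-blocking compounds were not removed from the actives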
* = called active by the depositor; i = inactive; x = not tested or not shown.

SMILES | Hsc70 | WNV protease inh | MT1-MMP promoter
CCOC(=O)c1ccc(N/C=C/C(=O)c2ccco2)cc1 | -4.2% | x | i
CCCCc1ccc(N2C(=O)[C@@H]3C(CC(N)=O)NC4(C(=O)Nc5ccc(F)cc54)[C@@H]3C2=O)cc1 (stereo partly specified) | 0.6% | x | i
COc1cc2c(cc1OC)C(c1ccc(C)o1)CC(=O)N2 (stereo unspecified) | -2.7% | -0.86 | i
COc1ccc(N2C(=O)CC(Nc3ccc(N4CCOCC4)cc3)C2=O)c(OC)c1 (stereo unspecified) | 1.1% | -1.1 | i
O=c1[nH]c(NC2CCCCC2)nnc1Cc1ccccc1 | -0.9% | -0.01 | i
O=C(CCCSc1nc2sc3c(c2c(=O)[nH]1)CCC3)NCCO | 2.4% | -0.98 | i
CN1CCN(/C=N/C2=C(C#N)C(c3ccccc3)C3=C(CC(C)(C)CC3=O)O2)CC1 (stereo unspecified) | -1.5% | x | i
Cc1ccc2c(C)c(C(=O)Nc3nnc(C)s3)oc2c1 | 2.0% | 0.41 | i
CC1(C)CC(=O)C2=C(C1)N(CCN1CCOCC1)C1=C(C(=O)CC(C)(C)C1)C2c1cccc(F)c1 | 0.8% | 0.36 | i
O=C(Cn1cnc2c(nnn2Cc2ccc(F)cc2)c1=O)NC1CCCC1 | -1.1% | -0.58 | i
Cc1cc(NC(=O)COC(=O)c2cccc(OCc3ccccc3)c2)no1 | 7.4% | x | i
COc1ccc(S(=O)(=O)NCc2ccco2)c2ccccc12 | 5.0% | 0.15 | i
CCOC(=O)C1CCCN(Cc2ccc(O)c(OC)c2)C1 (stereo unspecified) | 6.6% | 1.9 | i
CC(c1ccccc1F)n1cc(C(=O)NCc2ccncc2)nn1 (stereo unspecified) | -6.2% | -1 | i
Cc1ccccc1NC(=O)CCC(=O)OCCCC(F)(F)C(F)(F)F | 0.9% | 1.1 | i
Cn1c(=NC(=O)C2CCN(S(=O)(=O)c3cccs3)CC2)sc2ccccc21 | -5.3% | 1.4 | i
CC(C)(C)NC(=O)/C=N/O | -7.3% | -0.2 | i
COc1cccc(NC(=O)CSc2nc(N)cc(N)n2)c1 | 7.9% | -1.5 | i
CC(C)CN(CC(C)C)S(=O)(=O)N1CCC(C(=O)NCc2ccccn2)CC1 | 1.0% | 0.45 | i
OC(c1ccc(Cl)cc1Cl)C(Cc1cccnc1)n1cncn1 (stereo unspecified) | 0.3% | 2.8 | i
O=C(COc1ccccc1)Nc1ccc(S(=O)(=O)N2CCCC2)cc1 | 3.1% | 2.3 | i
CCCc1nc2oc3c(NCC4CCCO4)ncnc3c2c2c1COC(C)(C)C2 (stereo unspecified) | 4.0% | 1.4 | i
O=C(CN1C(=O)C2CC=CCC2C1=O)Nc1ccc(-c2nnc3n2CCCCC3)cc1 (stereo unspecified) | 1.8% | 0.86 | i
CC(C)(C)C(=O)Nc1ccc(Oc2ccc3c(c2)C(=O)N(c2ccc(O)cc2)C3=O)cc1 | 2.2% | x | i
CC1CCC(NC(=O)C2c3ccccc3C(=O)N2CCCN2CCOCC2)CC1 (stereo unspecified) | 1.9% | 0.58 | i
SMILES | Hsc70 | WNV protease inh | MT1-MMP promoter
O=C(c1ccco1)N1CCN(S(=O)(=O)c2ccc(Cl)s2)CC1 | 5.1% | x | i
COc1cc(C(=O)Nc2cc(C)ccn2)cc(OC)c1OC | 6.1% | 0.67 | i
O=C(CSc1ncccn1)NCc1ccccc1 | -5.9% | 0.4 | i
CC1(C)CC(=O)C2=C(C1)Oc1ncn(CCCn3ccnc3)c(=N)c1C2c1ccccc1 (stereo unspecified) | 1.2% | -0.17 | i
Cc1nn(-c2ccccc2)c2c1C(c1cccnc1)N1C=C(S(=O)(=O)N3CCCCC3)C=CC1=N2 (stereo unspecified) | 6.0% | 0.54 | i
O=C(NC(C(=O)c1ccccc1)n1ccc(=O)[nH]c1=O)c1ccccc1 (stereo unspecified) | 2.9% | -0.56 | i
NC(=O)c1oc2ccc(Cl)cc2c1N | -0.1% | 0.34 | i
CC1OC2C(OC1C)N(S(C)(=O)=O)CCN2S(C)(=O)=O (stereo unspecified) | -8.7% | 0.63 | i
Cc1ccc(-n2nc(C)c3c2OC(N)=C(C#N)C3c2ccc(F)cc2)cc1 (stereo unspecified) | -0.1% | 1.3 | i
O=C(Nc1nc(-c2ccco2)cs1)c1ccccc1 | 1.4% | -0.59 | i
CC(=O)Nc1ccccc1OCC(=O)c1cc(C)n(Cc2cccs2)c1C | -0.8% | 1.1 | i
COc1ccc(C(=O)CC2OC(=O)c3ccccc32)cc1OC (stereo unspecified) | -0.2% | x | i
COC(=O)[C@H](C)NC(=O)NC(C)CCc1ccccc1 (stereo partly specified) | -3.6% | x | i
Cc1cc(N)n2nc(-c3ccccc3)cc2n1 | -1.9% | -1.1 | 34µM*
O=C(CSc1ccccn1)Nc1ccc(Br)cn1 | 0.5% | 0.98 | i
O=C1c2ccccc2-c2nc3ncnn3c(-c3ccccc3Cl)c21 | 25% | 0.93 | i
CC(C)N(Cc1cc2ccccc2[nH]c1=O)C(=O)C1CCCCC1 | -5.8% | 1.1 | i
O=C(O)CC1SC(=Nc2cccc(O)c2)NC1=O (stereo unspecified) | -5.3% | -0.57 | i
CCCn1c(=O)[nH]c(=O)c2c1nc(-c1ccccc1OC(F)F)n2CCOC | 0.0% | -0.03 | i
O=C(Cn1cc2c(n1)CCCCC2)NCCN1CCOCC1 | 3.0% | 0.91 | i
COc1ccc(-c2cc(C(=O)OCC(=O)N(C)C)c3ccccc3n2)cc1 | 9.9% | -0.7 | i
N#Cc1nc(-c2ccc(OCc3ccccc3)cc2)oc1N1CCOCC1 | -13% | -1.4 | i
CCOC(=O)COc1cc2c(C(=O)OCC)c(C)oc2cc1Br | -1.0% | 0.9 | i
CC(C)C[C@H](NC(=O)Nc1cccc(Cl)c1)C(=O)O | -2.8% | -0.15 | i
O=C(c1coc(=O)c(Br)c1)N1CCOCC1 | -1.1% | -0.24 | i
SMILES | Hsc70 | WNV protease inh | MT1-MMP promoter
CC(C)COC(=O)NCCCOC(=O)Nc1ccccc1 | 3.6% | -0.03 | i
COc1ccc(NC(=O)c2cc(C(C)C)on2)cc1OC | 5.6% | -0.72 | i
C=CCSc1nc(N)c(C(=O)Nc2ccccc2C)cc1C(N)=O | -1.1% | 0.43 | i
CCCCN1C=C(C(=O)OC)C(c2ccccc2C(F)(F)F)C(C(=O)OC)=C1 | -7.4% | x | i
COc1ccccc1-c1c(C)nn2c(N3CCN(c4ccccc4OC)CC3)cc(C)nc12 | -2.3% | 0.29 | i
CNc1nc(C)c(C(=O)OCC(=O)OC)s1 | -3.7% | 1.9 | i
CC1(C(=O)O)CC(C)(C(=O)O)CC(C)(C(=O)O)C1 (stereo unspecified) | -1.2% | 1.3 | i
COc1ccc(OC)c(NC(=O)CSC2=NCCS2)c1 | 2.6% | 0.29 | i
COc1ccccc1NS(=O)(=O)c1cccc2cccnc12 | -0.8% | 1.4 | i
CCc1ccc(-n2c(CSc3nnnn3-c3ccccc3)nc3ccccc3c2=O)cc1 | 3.5% | x | i
COC(=O)c1cccc(NC(=O)c2nn(C(C)C)c(=O)c3ccccc23)c1 | 0.5% | -0.72 | i
CCOC(=O)N(Cc1ccccc1)C(C(=O)O)C(C(=O)O)N(Cc1ccccc1)C(=O)OCC (stereo unspecified) | -1.0% | 1.2 | i
CC12CCC(C(=O)NCc3cccnc3)(OC1=O)C2(C)C (stereo unspecified) | 7.1% | -0.39 | i
COC(=O)c1cccc(S(=O)(=O)N2CCOCC2)c1 | -9.7% | x | i
O=c1c2ccccc2nnn1CSc1nnc2ccccn12 | 2.4% | -0.92 | i
Cc1ccc(C)c(NC(=O)c2ccccn2)c1 | -0.5% | -0.58 | i
Cc1cc2ncn(CC(O)COc3cccc(C(=O)O)c3)c2cc1C (stereo unspecified) | -2.5% | 0.17 | i
COc1cc(C2C(C#N)=C(N)Oc3n[nH]c(-c4ccncc4)c32)cc(OC)c1OC (stereo unspecified) | -0.6% | 1.4 | i
CS(=O)(=O)N(CC(=O)N1CCCCC1)c1sc2c(c1C#N)CCCC2 | 4.0% | -0.46 | i
COCCN(C(=O)c1ccccc1)c1nnc(-c2cccnc2)s1 | 1.3% | 0.23 | i
Cc1csc(Cn2c(CN(C)C)nc3ccccc3c2=O)n1 | 1.8% | 0.48 | i
Oc1cc(NCc2cccnc2)ccc1-c1nc2ccccc2o1 | 1.2% | 0.17 | i
Nc1nnc(-c2ccccc2)s1 | -2.2% | x | i
O=C1CCCN1CCCNc1ccc(S(=O)(=O)N2CCCCC2)cn1 | 2.6% | -0.71 | i
Cc1ccc2cccc(O)c2[n+]1[O-] | 1.7% | 0.21 | i

Among those listed so far, 2 contain a CF3 group:
SMILES | Hsc70 | WNV protease inh | MT1-MMP promoter
Cc1ccccc1NC(=O)CCC(=O)OCCCC(F)(F)C(F)(F)F | 0.9% | 1.1 | i
CCCCN1C=C(C(=O)OC)C(c2ccccc2C(F)(F)F)C(C(=O)OC)=C1 | -7.4% | x | i

More compounds.
SMILES | Hsc70 | WNV protease inh | MT1-MMP promoter
CCCCCn1c(CN2CCN(c3cccc(Cl)c3)CC2)nc2c1c(=O)n(C)c(=O)n2C | 1.4% | 0.26 | i
Cc1ccc(N2CC(C(=O)Nc3ccc(S(=O)(=O)N4CCOCC4)cc3)CC2=O)cc1 (stereo unspecified) | -0.1% | -1.1 | i
C=CCn1c(=O)c2ccccc2n2c(SCc3nc4ccccc4s3)nnc12 | -0.4% | x | i
O=C(CSc1nnc(-c2cccnc2)n1CCc1ccccc1)N1CCCCC1 | -2.0% | -0.51 | i
O=C(COc1ccc(Br)cc1)Nc1ccc(-c2nnc(-c3ccco3)o2)cc1 | -13% | 0.69 | i
CC(=O)Nc1cccc(NC(=O)CCCC(=O)O)c1 | -0.3% | -0.66 | i
CCOC(=O)CNC(=O)c1sc2ncnc(N3CCc4ccccc4C3)c2c1C | -3.5% | x | i
O=C(NCCc1ccccc1)C1CCCN(S(=O)(=O)c2cnc[nH]2)C1 (stereo unspecified) | 3.9% | -0.48 | i
CC(C)OP(=O)(OC(C)C)C(NC(=O)c1ccc(Br)cc1)c1ccccc1 (stereo unspecified) | -4.1% | x | i
CCn1cc(SCC(N)=O)c2ccccc21 | 2.1% | -0.35 | i
O=C(CSc1nncn1-c1ccccc1)NCc1cccs1 | -1.3% | x | i
CC(C)(C)NC(=O)C(Cc1ccccc1)NS(=O)(=O)c1cccc2nsnc12 (stereo unspecified) | -0.8% | 0.37 | i
CCOC(=O)CSc1nc2ccc(S(=O)(=O)N3CCOCC3)cc2[nH]1 | -2.2% | x | i
COc1ccccc1/C=C/C(=O)N1CCOCC1 | -0.9% | x | i
N#Cc1c2c(c(N3CCN(CCO)CC3)n3c1nc1ccccc13)CCCC2 | -0.7% | -0.31 | i
O=C(O)CSc1nnc(-c2ccccc2)o1 | 0.7% | -0.18 | i
COc1ccc(NC(=O)C2CCCNC2)cc1OCC(C)C (stereo unspecified) | -4.7% | -0.11 | i
CN1CC2CCCC3(C1)C(=O)NC1(CCCCC1)N=C23 (stereo unspecified) | 5.0% | 0.17 | i
CC1=C(NCCc2ccccc2)CCC1=O | -1.0% | -0.09 | i
COc1ccc(-c2nnc(SCC(=O)N3CCCc4ccccc43)o2)cc1OC | 6.6% | 0.21 | i
CN(c1ccccc1)C(c1ccc(F)cc1)c1nnnn1CC1CCCO1 (stereo unspecified) | 0.4% | 0.53 | i
CCn1c(=O)c(C(=O)CN2CC(C)OC(C)C2)c(N)n(Cc2ccccc2)c1=O (stereo unspecified) | -3.1% | 0.52 | i
Cc1ccc(-n2c(SCC(=O)Nc3ccc4c(c3)OCO4)nnc2-c2ccccn2)cc1 | 3.6% | x | i
O=C(NCCc1c[nH]c2ccccc12)c1ccc(S(=O)(=O)NCc2ccco2)cc1 | -8.5% | -0.1 | i
c1ccc(-c2nc3ccccc3o2)nc1 | 1.8% | 0.01 | i
CC1(C)Cc2ccccc2-c2nnc(-c3ccccn3)n21 | -2.2% | 1.1 | i
CN(C)c1nc(N)nc(CSc2nc3cc(Cl)ccc3o2)n1 | -74% | -0.12 | i
CCCn1c(CN2CCN(c3cccc(Cl)c3)CC2)nc2c1c(=O)n(C)c(=O)n2C | -0.3% | -0.6 | i
Cn1c(SCC(=O)NCc2cccs2)nnc1-c1ccncc1 | -3.9% | -0.71 | i

In the list so far, these contain a furan ring, fused or not:
SMILES | Hsc70 | WNV protease inh | MT1-MMP promoter
CCOC(=O)c1ccc(N/C=C/C(=O)c2ccco2)cc1 | -4.2% | x | i
COc1cc2c(cc1OC)C(c1ccc(C)o1)CC(=O)N2 (stereo unspecified) | -2.7% | -0.86 | i
Cc1ccc2c(C)c(C(=O)Nc3nnc(C)s3)oc2c1 | 2.0% | 0.41 | i
COc1ccc(S(=O)(=O)NCc2ccco2)c2ccccc12 | 5.0% | 0.15 | i
CCCc1nc2oc3c(NCC4CCCO4)ncnc3c2c2c1COC(C)(C)C2 (stereo unspecified) | 4.0% | 1.4 | i
O=C(c1ccco1)N1CCN(S(=O)(=O)c2ccc(Cl)s2)CC1 | 5.1% | x | i
NC(=O)c1oc2ccc(Cl)cc2c1N | -0.1% | 0.34 | i
O=C(Nc1nc(-c2ccco2)cs1)c1ccccc1 | 1.4% | -0.59 | i
CCOC(=O)COc1cc2c(C(=O)OCC)c(C)oc2cc1Br | -1.0% | 0.9 | i
O=C(COc1ccc(Br)cc1)Nc1ccc(-c2nnc(-c3ccco3)o2)cc1 | -13% | 0.69 | i
O=C(NCCc1c[nH]c2ccccc12)c1ccc(S(=O)(=O)NCc2ccco2)cc1 | -8.5% | -0.1 | i

High-throughput results from PubChem BioAssay.

An excerpt; count on the stated rates, not on these rows.
